# rRNA inh HTS – reduced GFP signal of wild-type E. coli, primary screen, bacterial rRNA inhibitor project, GFP/RFP fluorescence, OD600, single point | AID 720706, 2013 | GFP signal change (wild-type ribosome), % (concentration not given with the values) | E. coli WT GFP vs humanized-ribosome RFP mutants, 24 h; active compounds read low; DMSO median 0, no signal -100 | 350,000 compounds, 1.6% hits;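 active = significant combined selectivity score with lowered wild-type GFP, culture density cut under 30%, mutant RFP and density less affected; inactive = any of these conditions unmet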; also: one replicate is shown; some compounds called inactive have numbers as strong as hits
# Calb FLC – C. albicans growth inhibition with fluconazole, primary screen, CaCi-2 strain, Alamar Blue fluorescence | 300,000 compounds, 0.57% hits | C. albicans CaCi-2 (fluconazole-resistant clinical isolate) + fluconazole, 48 h | AID 1979, 2009 | growth inhibition, % (no concentration beside the values);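 active = most replicates above 75%; inconclusive = exactly half above 75%; inactive = most below 75%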;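 also: all wells also contain fluconazole at 8 µg/ml as a sub-toxic cotreatment; 0% = median of DMSO wells and 100% = median of geldanamycin control wells; wells of about 8 µL received 7.5 nL stock; the first replicate is given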
# Beta apoptosis – inhibitors of cytokine-induced beta cell apoptosis, primary screen, luminescence; INS-1E cytokine-induced death, ATP luminescence, 48 h; percent of positive-control rescue, neutral wells zero; protection from apoptosis, % (test concentration not listed); 300,000 compounds, 0.8% hits; AID 435005, 2010;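 active = all replicates at 75% or more, or half of them and the mean; inconclusive = half reach 75% but not the mean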;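 also: 0% = cytokine-treated negative control wells and 100% = positive control rescue; higher means more ATP so stronger rescue from cytokine killing; wells of about 40 µL received 100 nL stock; the first replicate is given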
# Vif A3G – inhibitors of Vif binding to APOBEC3G peptide, primary screen, biochemical, TR-FRET, GST-Vif 1-94, biotin-A3G peptide, dose response retest (AID 1117319) | Virion infectivity factor (Human immunodeficiency virus type 1 group M subtype B (isolate … | TR-FRET GST-Vif / biotin-A3G peptide binding; higher % means a stronger effect; test concentration not given here; strong numbers were not always called active | one-dose inhibition, %; IC50 in µM for titrated hits | 260,000 compounds, 0.57% hits;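 active = above the screen mean plus three standard deviations and confirmed in dose response; inconclusive = results disagree or hit not tested in dose response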;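 also: Vif residues 1-94 fused to GST binding biotinylated APOBEC3G peptide 110-148; 0% = full assay without inhibitor and 100% = GST in place of GST-Vif; retest series ran down from 100 µM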
# RanGTP-Imp inh – inhibitors of RanGTP-importin-beta interaction, primary screen, biochemical, FRET, CFP-Ran, YFP-importin-beta, homogeneous; Ran GTPase (GTP-bound) - importin-beta complex; cell-free CFP-Ran/YFP-importin-beta FRET ratio; 300,000 compounds, 1.1% hits; inhibition, % (no concentration beside the values);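 active = most replicates above 15%; inconclusive = exactly half above 15%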;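 also: 0% = DMSO wells and 100% = Ran loaded with GDP instead of GTP; wells of about 40 µL received 100 nL stock; the first replicate is given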
# T cruzi repl – inhibitors of intracellular T. cruzi growth, primary screen, luminescence, NIH3T3 host cells; 300,000 compounds, 1.4% hits; AID 1885, 2009; T. cruzi beta-gal in NIH3T3, 90 h; inhibition, % (no concentration beside the values);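 active = mean inhibition across valid replicates above about 55%, limit read from the data; inconclusive = mean below that limit but half or more replicates reach it; inactive = mean below it, under half of replicates reach it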;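 also: signal also drops with host cell toxicity which is not excluded here; 0% = plate median of DMSO wells and 100% = zero luminescence signal; higher percent means less beta-gal luminescence so fewer parasites; stock transfer was 50 nL into about 50 µL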
# Bfl-1 A1 inh – caspase 3/7 activation in MEF A1-2A-BIM cells, primary screen, A1 inhibitor project, cell-based, luminescence, HTS | Caspase-Glo 3/7 luminescence, 3 h; percent of clofoctol response, vehicle zero | caspase activation, % (concentration not given with the values) | 330,000 compounds, 0.066% hits;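 active = over half of replicate activation scores above 10%, or exactly half above 10 with the replicate mean above 10; inconclusive = replicate mean below 10 yet half the replicates above 10; inactive = over half of replicates below 10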;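 also: wells of about 30 µL received 50 nL stock; many hits fall short of the cut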
# AF4-AF9 inh – inhibitors of AF4 peptide binding to AF9, primary screen, biochemical, AlphaScreen, biotin-AF4 peptide, FLAG-AF9, single point; inhibition, % at 10 µM; 350,000 compounds, 0.47% hits; AID 651704, 2012;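 active = every replicate reaching a set inhibition limit, whatever the replicate mean, cut at about 25% in these data; inconclusive = mean inhibition reaches that limit but some replicates miss it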;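 also: 0% = plate neutral control median and 100% = total signal loss; the record names both 10 and 1 µM as test concentration; the first replicate is given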
# Target sequence (P42568 whole entry, looked up): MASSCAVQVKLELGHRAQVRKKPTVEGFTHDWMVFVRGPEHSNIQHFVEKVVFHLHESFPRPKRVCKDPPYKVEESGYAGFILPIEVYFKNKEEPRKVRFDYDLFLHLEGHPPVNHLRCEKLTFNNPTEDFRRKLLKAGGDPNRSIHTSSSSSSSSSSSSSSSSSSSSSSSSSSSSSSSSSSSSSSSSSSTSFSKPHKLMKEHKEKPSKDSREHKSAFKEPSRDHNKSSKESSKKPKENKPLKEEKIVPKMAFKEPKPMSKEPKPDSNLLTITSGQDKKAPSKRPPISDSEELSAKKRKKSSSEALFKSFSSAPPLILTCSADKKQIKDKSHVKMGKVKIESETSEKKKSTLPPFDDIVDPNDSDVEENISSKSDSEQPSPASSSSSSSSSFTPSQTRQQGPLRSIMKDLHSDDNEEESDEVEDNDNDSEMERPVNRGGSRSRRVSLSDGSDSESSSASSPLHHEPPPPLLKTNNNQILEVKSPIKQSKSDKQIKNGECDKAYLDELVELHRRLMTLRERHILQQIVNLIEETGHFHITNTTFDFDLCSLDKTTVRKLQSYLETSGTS
# rRNA inh HTS OD600 – recorded beside rRNA inh HTS, whose call it bears; OD600 change, %; measured here: OD600 growth;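 optical density of the mix in the first replicate; 0 = DMSO median and -100 = no signal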
# rRNA inh HTS RFP – further read-out of rRNA inh HTS, marked with its call; RFP signal change, %; measured here: RFP humanized mutant strains;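 first replicate; 0 = DMSO median and -100 = no signal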
# Starred values were filed as active, the others as inactive; u = inconclusive; x = not tested or not shown; & = joins results of further samples. Not all compounds are listed (hit frequency here may not be typical).
molecule,rRNA inh HTS,rRNA inh HTS OD600,rRNA inh HTS RFP,Calb FLC,Beta apoptosis,Vif A3G,RanGTP-Imp inh,T cruzi repl,Bfl-1 A1 inh,AF4-AF9 inh
CCN(CC)CCNC(=O)/C(=C\c1cccn1C)NC(=O)c1cccs1,14,10,-4.4,5,-2,x,2.5,-8,1.2,6.8
O=[N+]([O-])c1ccc2[nH]c(O)c(N=NC(=S)NCC3CCCO3)c2c1 (centres undefined),x,x,x,22,5,-14%,-3.1,-14,0.0,x
COc1ccc(NC(=S)NCc2ccc(F)cc2)c(OC)c1,2,5,2.3,-21,1,x,-0.5,-9,-0.6,3.3
CCCc1nnc(NC(=O)C(CC)OC(=O)c2cc(C)nc3ccccc23)s1 (centres undefined),x,x,x,-4,-1,0%,-3.2,-2,0.9,x
Cc1cc(S(=O)(=O)N2CCOCC2)ccc1OCC(=O)Nc1ccc(F)cc1F,6,6,-1.4,12,6,x,-0.8,1,-0.6,-3.3
CCCOc1ccc(Cl)cc1Nc1nc(NCCO)nc(N2CCCC2)n1,27,19,-1.9,1,-2,x,-4.4,8,1.3,-8.8
CCCCC(NC(=O)Cc1c(C)c2cc3c4c(oc3c(C)c2oc1=O)CCCC4)C(=O)O (centres undefined),5,4,-1.3,5,-4,3%,9.4,1,1.6,2.9
O=C(CNC(=O)c1ccc(Cl)cc1)Nc1ccccc1C(F)(F)F,2,-1,-8.2,2,5,3%,u,-8,0.4,1.8
O=C(COc1ncnc2c(Cl)cc(Cl)cc12)N1CCCCC1,4,13,-4.0,-27,3,6%,-1.3,11,0.1,x
Cc1onc(-c2ccccc2)c1C(=O)N1CCCCCC1,8,6,4.1,7,-4,x,-1.9,9,-0.2,0.4
COc1ccc(C/C(C)=N/NC(=O)c2cccnc2)cc1,x,x,x,-7,-7,1%,2.4,16,-1.9,x
COc1ccc(NC(=S)N(CCO)Cc2ccccc2)cc1,x,x,x,8,-2,u,-1.2,4,0.0,x
N#C/C(=C(/O)c1ccc2c(c1)OCO2)c1nc2cc(C(F)(F)F)ccc2s1,1,3,0.1,20,15,-6%,-3.1,-16,-2.4,1.9
CCOC(=O)C1CCCN(c2c(NCCCN(CC)c3ccccc3)c(=O)c2=O)C1 (centres undefined),x,x,x,23,-4,-6%,-4.1,13,0.4,x
Cn1cc(S(=O)(=O)N2CCc3ccccc32)cc1C(=O)NC(C)(C)C,2,5,-4.2,1,41,x,-1.5,1,0.0,9.3
CCCn1c(N)c(N(CCOC)C(=O)COC(=O)c2ccccc2NCCO)c(=O)[nH]c1=O,9,13,-0.3,6,-2,-2%,3.6,-5,-0.4,-2.2
CC(NC(=O)c1ccco1)C(=O)OCC(=O)N1CCCCCC1 (centres undefined),6,13,-3.2,x,0,5%,x,x,1.2,-5.4
COc1ccc(CC(=O)Nc2c(C(=O)N3CCN(c4ncccn4)CC3)oc3ccccc23)cc1,-4,-16,0.4,10,4,x,5.5,10,-0.3,3.3
CCOC(=O)C1CCCN(c2c(NCCCN(C)Cc3ccccc3)c(=O)c2=O)C1 (centres undefined),x,x,x,-5,6,5%,0.3,8,2.0,x
COc1cccc(NC(=O)c2ccccc2N2C(=O)C3C4C=CC(C4)C3C2=O)c1 (centres undefined),13,7,0.9,8,x,0%,-0.8,0,-0.5,0.6
CS(=O)(=O)N1CCN(C(=O)c2cc(-c3ccccc3)nc3ccccc23)CC1,x,x,x,3,2,-3%,1.2,-1,0.5,x
O=C(OCCCN1CCCCC1)c1ccc(O)cc1,x,x,x,-6,0,u,2.9,7,-0.4,x
CCc1ccc(N2CC(C(=O)Nc3cccc(C(=O)NC4CC4)c3)CC2=O)cc1 (centres undefined),1,5,1.1,x,0,x,x,x,-0.6,0.4
Cc1ccc(NC(=O)CCC(=O)NNC(=O)NC23CC4CC(CC(C4)C2)C3)cc1C,10,14,0.9,18,-2,1%,-0.7,-11,-0.2,-2.0
CCCSc1nc(C)c(-c2csc(C(C#N)=C3CCCC3)n2)cc1C#N,x,x,x,1,4,u,-1.2,8,0.2,x
CC(=O)/C(N=Nc1ccc2c(c1)OCCO2)=C(\C)O,-10,-7,-7.2,-4,2,4%,-2.9,8,-5.6,13
CCN(CC)CCn1c(NCc2cccc(OC)c2OC)nc2ccccc21,x,x,x,-5,5,5%,-1.9,1,-0.6,x
Nc1ccccc1SCc1cc([N+](=O)[O-])cc2c1OCOC2,x,x,x,15,-3,7%,-2.4,-3,1.5,x
COc1ccc(NC(=S)NC2CC3CCCC(C2)N3C2CC2)cc1 (centres undefined),10,10,1.5,-32,-6,5%,2.9,-15,0.9,3.4
C/C(=N/N1CCN(Cc2cccc3ccccc23)CC1)c1ccco1,-7,2,0.4,6,2,0%,-1.0,-3,-0.1,x
Cc1c(Cl)cccc1-n1nnnc1-c1cccs1,x,x,x,13,0,13%,0.7,2,-1.1,x
Cc1ccc2c(c1)N(CC(=O)NCC1CCCO1)C(=O)C(C)O2 (centres undefined),x,x,x,-11,-10,-2%,-0.8,-9,-0.1,x
Cc1ccccc1COc1ccc(-c2nn[nH]n2)cc1,-25*,-14*,-0.7*,5,2,x,-1.8,-6,0.1,-13
COc1ccccc1N1CCN(C(=O)c2oc3cc(C)c(C)cc3c2C)CC1,x,x,x,3,x,-6%&73%,u,33,x,x
Cc1ccc(OCC(=O)N/N=C/c2ccncc2)cc1,x,x,x,-12,-2,-5%,3.5,-16,0.2,x
COc1ccc(/C=N/N2CCOCC2)cc1COc1ccc(F)cc1,-5,-21,-1.3,22,-5,2%,-0.3,8,-1.1,18
Cc1c(C(=O)c2no[n+]([O-])c2C(=O)c2cnn(C)c2C)cnn1C,x,x,x,6,-4,6%,-0.2,-6,0.4,x
CCS(=O)(=O)Nc1ccc(C2=NN(S(=O)(=O)c3ccc(F)cc3)C(c3ccco3)C2)cc1 (centres undefined),x,x,x,14,1,2%&2%,0.6,10,-0.1,x
CC(=O)c1ccc(NC(=O)c2cc(Cl)sc2Cl)cc1,-30*,-19*,-2.1*,-4,3,x,2.9,-9,-3.3,5.9
CCCCCCCc1c(O)nc(SCC(=O)O)[nH]c1=O,13,8,2.3,-2,-2,x,7.1,-9,0.5,-5.0
COC(=O)C(CCSC)NC(=O)Cn1ncc2c(=O)oc3ccccc3c21 (centres undefined),-1,2,-2.4,-3,0,-2%,0.6,-10,0.5,0.8
CCOc1ccc(NC(=O)CCC(=O)c2ccc(OC)cc2)cc1,5,9,0.5,-33,x,1%,4.0,8,1.3,-3.3
CCCCN(CC)Cc1ccc(CNC(=O)Nc2ccc(F)cc2)o1,x,x,x,-23,-2,-1%,-2.1,1,-0.2,x
O=C(NCCc1cccc(Cl)c1)c1cccc([N+](=O)[O-])c1,x,x,x,10,2,3%,4.8,7,-1.1,x
Cc1cc(C(=O)CSc2cccc[n+]2[O-])c(C)n1-c1ccccc1,-11,-20,-9.8,8,16,2%,4.2,-7,-0.8,3.9
O=C(CCN1C(=O)c2ccccc2C1=O)Nc1sc2c(c1C(=O)NCc1ccco1)CCCC2,x,x,x,13,-3,21%,0.0,-10,-0.4,x
Cc1ccc(NC(=O)C2CC(=O)Nc3ncnn32)cc1Cl (centres undefined),7,0,1.2,3,-13,-1%,-0.8,-1,-0.1,-6.3
CCCCCCOc1ccc(N2C(=O)CC(SCCN)C2=O)cc1 (centres undefined),-21,-24,-2.2,12,-2,4%,-0.3,-1,0.5,u
COC(=O)C1=C(C)N(c2cccc(C)c2)C(=O)/C1=C\c1cccs1,x,x,x,9,x,5%,u,0,-0.1,x
Cc1cccc(OCC(=O)N=Nc2c(O)[nH]c3ccc([N+](=O)[O-])cc23)c1,2,-3,-3.3,4,-5,5%,5.2,-1,-0.2,2.5
C=CCn1cc(F)c(=O)n(CC=C)c1=O,11,9,0.2,-9,-7,-1%,-3.8,-5,-0.3,0.9
Cc1nnc(NC(=O)c2c(F)cccc2F)s1,4,9,-0.6,-5,-12,-1%,3.7,-5,0.7,0.7
O=C(NCCO[N+](=O)[O-])c1cccnc1,x,x,x,x,1,2%,0.2,-17,-0.3,20
CCc1sc(C(=O)NNC(=O)c2cncc(Br)c2)cc1C,11,15,-1.9,x,-2,x,x,x,-0.2,1.4
Cc1ccc(S(=O)(=O)N2[C@@H](c3cccc(C)c3)C(C(=O)O)=C[C@H]2CC2CCCC2)cc1,-6,-10,-0.7,x,-14,1%,x,x,-0.1,-0.7
O=C(CSCCc1ccccn1)Nc1ccc(Br)cn1,x,x,x,4,-4,-7%,u,9,-0.3,x
COc1ccc(NC(=O)C2=CC(c3cccs3)=NS(=O)(=O)N2C)cc1,-1,-13,-12,-2,-3,x,-2.6,10,x,8.0
COc1cccc(C2CC(=O)Nc3cc4c(cc32)OCCO4)c1OC(C)C (centres undefined),3,6,-2.4,x,x,20%,x,x,0.9,3.4
O=C(CCNS(=O)(=O)c1cccs1)Nc1nccs1,x,x,x,-3,0,-6%,3.1,6,-1.1,x
Cc1ccc(NC(=O)c2oc3ccccc3c2NC(=O)c2ccc3c(c2)OCO3)cc1,x,x,x,-3,13,5%,4.9,17,1.0,x

# (further entries)
molecule,rRNA inh HTS,rRNA inh HTS OD600,rRNA inh HTS RFP,Calb FLC,Beta apoptosis,Vif A3G,RanGTP-Imp inh,T cruzi repl,Bfl-1 A1 inh,AF4-AF9 inh
O=C(O)c1ccccc1C(=O)NNc1ccc(F)cc1,x,x,x,102*,0,32%,3.3,-5,0.5,x
CS(=O)(=O)N(CC(=O)N1CCOCC1)c1cc(Cl)ccc1Cl,3,9,-0.8,6,-12,x,-0.5,1,-0.2,-2.3
COc1ccc(N2Cc3cccc(C(=O)NC(C)CCc4ccco4)c3C2=O)cc1 (centres undefined),-10,-8,6.1,-5,-6,10%,0.4,16,0.1,0.2
COc1cccc(NC(=O)COc2cc(O)c3c(c2)OC(C)(C)CC3=O)c1,x,x,x,0,-11,x,3.0,-4,-1.1,3.9
CCC(/C=N/NC(=O)c1ccccc1F)CC,11,11,-0.2,20,-7,4%,x,-3,0.0,-0.7
CNC(=S)N(CCc1c(C)[nH]c2ccc(C)cc12)Cc1ccc(OC)c(OC)c1,0,0,6.1,12,-1,4%,-4.4,15,0.1,3.8
Cc1ccc(C)c(OCCC(=O)OCC(=O)NC2CCS(=O)(=O)C2)c1 (centres undefined),6,3,-1.6,-2,-2,5%,x,-8,0.9,-0.5
